NPYLR7 agonist – activates Aedes aegypti NPYLR7 receptor | AID 1259423 | activation, % at 10 µM | HEK293T NPYLR7/Galpha15, GCaMP6s calcium fluorescence | actives 0.15% (n = 270,000); in the data active means activation above about 40%;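 further: 0% = vehicle and 100% = reference agonist at the receptor; some compounds past the cut are filed as inactive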
NPYLR7 agonist max-min – further read-out of NPYLR7 agonist, marked with its call; activation, %; measured here: Max-Min RFU normalised activation; some inactives read as strong as hits;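 span of the calcium signal over five minutes; 0% = vehicle and 100% = native peptide agonist; compound fluorescence can raise it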
Active calls of the source: *; & = joins results of further samples. The list is partial; rates above refer to the full screens.

SMILES | NPYLR7 agonist | NPYLR7 agonist max-min
O=S(=O)(c1ccc(Br)cc1)N1CCc2nc(-c3ccccc3)nc(N3CCOCC3)c2C1 | 0 | 5
CC(=O)Nc1ccc(/C=C/C(=O)N2CCNC(=O)C2C(C)C)cc1 (stereo not drawn) | 7 | 6
COc1ccc(-c2ccc(=O)n(CCCNC(=O)c3cccs3)n2)cc1 | 1 | 1
Brc1ccccc1-c1nnc(SCc2nnc(-c3ccco3)o2)o1 | 8 | 11
CCCC(C)CC(=O)NS(=O)(=O)CCCF (stereo not drawn) | 10 | 4
C=CCCC(O)CN(CCCOC)Cc1c(-c2ccccc2)noc1N1CCCCC1 (stereo not drawn) | 10 | 15
CCc1cccc(C)c1NCc1ccc(-n2ccnc2)nc1 | 3 | 0
Cc1csc(=O)n1CC(=O)OCC(=O)c1c(N)n(C)c(=O)n(C)c1=O | 2 | -4
COc1cccc(NC(=O)N(CCCN2CCOCC2)CC(=O)N(Cc2ccc(F)cc2)Cc2ccco2)c1 | -3 | -1
O=C(CSc1nnc(-c2ccccc2)n1-c1ccccc1)N/N=C\c1ccccc1O | -12 | -21
CCCc1c(C(=O)O)cnn1-c1ccccc1C | -6 | -13
O=C1C2C3C=CC(C3)C2C(=O)N1Cc1ccccc1Cl (stereo not drawn) | -8 | -13
COc1ccc(OC)c(C2SC(C)C(=O)N2CCN(C)C(=O)c2cccc(F)c2)c1 (stereo not drawn) | 12 | 7
Cc1cc(NC(=O)Cc2ccc3c(c2)CCC3)ccc1N1CCCC1=O | 4 | 4
CCOC(=O)C1CCN(C(=O)c2coc(CN(CCc3c[nH]c4ccccc34)Cc3cccc(Oc4ccccc4)c3)n2)CC1 | 8 | 9
Cc1ccc(-c2ccc(=O)[nH]n2)cc1-n1cnnc1 | 4 | 2
COCCCN(CC(=O)N1CCc2sccc2C1COc1ccccc1C)C(=O)c1cccc(Cl)c1 (stereo not drawn) | -1 | 4
Cc1nnc(SCc2cccs2)[nH]c1=O | 2 | 3
O=C1N(Cc2ccccc2)C(c2ccc(C(F)(F)F)cc2)C1(F)F (stereo not drawn) | -1 | -1
O=C(c1cccs1)N1CCCC(OCc2ccc(F)cc2F)C1 (stereo not drawn) | -4 | -3
CC(C)c1ccc(OCCN(C)Cc2cc3n(n2)CCCNC3)cc1 | -2 | -3
CC(Sc1nnc(-c2ccc(Br)cc2)o1)C(N)=O (stereo not drawn) | -3 | 3
CCc1ccc(NC(=O)CSc2nc(=O)n(Cc3cccnc3)c3c2CCC3)cc1 | -3 | -6
CN(C)CCNc1nc(C(F)(F)F)nc2ccsc12 | 4&2 | 3&2
CC(=O)Nc1nc(C(=O)N(C)C2CCC(c3ccccc3)CC2)cs1 (stereo not drawn) | 0 | -2
Cc1nn(C(C)(C)C)c2nc(C3CC3)cc(C(=O)N(C)c3nccs3)c12 | 11 | 7
Cc1cccc(-c2noc(CN(C)Cc3cc4n(n3)CCNC4)n2)c1 | 15 | 14
Cc1ccc(-n2c(-c3ccc(Cl)cc3)cc(C(=O)NCCc3ccccc3)c2C)cc1 | -5 | 1
O=C(NCCc1ccccc1F)C1CC=CCC1C(=O)N1CCN(c2ccccn2)CC1 (stereo not drawn) | -10 | -15
Cc1nc(-c2ccccc2C)n(Cc2cc(=O)n(C)c(=O)n2C)n1 | -3 | -4
O=C(c1c(O)cccc1O)N1CCN(CCn2cncn2)CC1 | 1 | -1
CC(C)Cn1c(-c2ccccc2)n[nH]c1=S | 1 | 2
CCCOc1ccccc1C1NC(=O)N(C)C(C)=C1C(=O)OCC (stereo not drawn) | 2 | -12
O=C(CSc1nc2[nH]ncc2c(=O)n1-c1ccccc1)NCC1CCCO1 (stereo not drawn) | 9 | 11
CCc1nn(C)c(Cl)c1CN1CCCN(c2ccnc(C)c2)CC1 | 0 | -8
c1sc(N2CCCCC2)nc1C12CC3CC(CC(C3)C1)C2 | -2 | -3
Cc1ccc(C)c(NC(=O)CSc2nc(=O)n(Cc3ccco3)c3c2CCC3)c1 | -1 | -4
CN(C)S(=O)(=O)c1cccc(COC(=O)c2cc3c(s2)CCCC3)c1 | 5 | 1
CC(Oc1ccc(OCc2ncc(-c3cccs3)o2)cc1)C(N)=O (stereo not drawn) | -3 | -4
COCC(=O)N1CCC(C(NC(=O)c2cccc(OC)c2)C(=O)NCc2ccco2)CC1 (stereo not drawn) | 6 | 5
O=C(CCc1ccsc1)NCc1nc(-c2ccc(F)cc2)n[nH]1 | 24 | 14
COc1ccccc1CN1CCCn2cccc2C1c1ccc(C)cc1 (stereo not drawn) | -11 | -4
CS(=O)(=O)Nc1ccccc1C1=NN(C(=O)c2ccccc2F)C(c2ccco2)C1 (stereo not drawn) | 11 | 13
CC(=O)c1c(F)cc(F)cc1OCC(=O)N(C)Cc1cccs1 | 13 | 11
CC1=C2C(=CO[C@H](C)[C@H]2C)C(=O)C(C(=O)O)C1=O (stereo partly drawn) | 1&1 | -7&0
CC(=O)N1CCc2cc(NC(=O)CN(c3cccc(C#N)c3)C(C)C)ccc21 | 4 | 1
O=CN1CCCN(C(=O)c2cc(COc3ccc4c(c3)CCCC4)on2)CC1 | 9 | 0
O=C1NCCN(C/C=C/c2ccco2)C1c1ccc(F)cc1 (stereo not drawn) | 5 | 4
O=C(CSc1nnc2n1CCCCC2)NN1C(=O)NC2(CCCCC2)C1=O | 0 | 1
COc1ccc(CC(=O)NCc2cccnc2-n2ccnc2)c(OC)c1 | 1 | 0
O=C(Nc1ccccc1)c1cc(S(=O)(=O)Nc2ccccn2)ccc1Br | -11 | -20
C=C(C)Cn1c(=O)c2c(nc3n2CC(C)=NN3Cc2ccc(F)cc2)n(C)c1=O | 0 | -6
CN(C)c1cccc(C(=O)N2CCC3(CCCN(CCc4ccccc4)C3)C2)c1 (stereo not drawn) | 15 | 9
CNc1nc2cnc(-c3ccc(CO)cc3)cc2n1Cc1ccccc1 | 11 | 0
OCCC1CN(Cc2ccc3cccc(F)c3n2)CCN1CCc1ccccc1 (stereo not drawn) | 12 | 4
CCOCC(=O)Nn1cnc2c(cnn2C(C)(C)C)c1=O | 3 | -1
CNC(=O)c1ccc(OC)c(-c2ccccc2CN2CCOCC2)c1 | 4 | 3
COc1ccc(C(=O)N2CCN(C3=NS(=O)(=O)c4ccccc43)CC2)cc1OC | 0 | -2
CCn1cc(S(=O)(=O)Nc2ccc(C(=O)OC(C)C)cc2)cn1 | -2 | -4
CCc1ccc(Cl)c(CC)c1NC(=O)N1CCN(c2ccc(O)cc2)CC1 | 11 | 5
The list goes on:
SMILES | NPYLR7 agonist | NPYLR7 agonist max-min
CCN1CC(CNC(=O)c2cccc(OC3CCN(C(=O)C4CC4)CC3)c2)CC1=O (stereo not drawn) | 11 | 7
Cn1c(NC(=O)c2cccc(C(F)(F)F)c2)cc(=O)n(C)c1=O | 11 | 14
Cc1ccc(CN2CCN(c3nc4c(c(=O)[nH]c(=O)n4C)n3Cc3ccc(C)cc3)CC2)cc1 | 0 | 74
CCOC(=O)CNC(=O)N1CCN(c2cc(Oc3ccc(F)cc3C)ncn2)CC1C (stereo not drawn) | -10 | -6
C=CCn1c(SCC(=O)N2CCOCC2)nnc1-c1ccc(OC)cc1 | 21 | 14
CCOC(=O)c1nn(-c2ccccc2)c(=O)cc1OS(=O)(=O)c1ccc(OC)c(C)c1 | -1 | 4
N#Cc1ccc(NC(=O)CS(=O)CCC23CC4CC(CC(C4)C2)C3)cc1 (stereo not drawn) | 11 | 2
COCCn1cc(C(=O)N2CCN(C(=O)COC)CC2)c2nn(-c3ccccc3)c(=O)c-2c1 | 4 | 1
Cc1nc2cc(NC(=O)/C=C/c3ccc([N+](=O)[O-])s3)ccc2n1-c1ccccc1 | -4 | -6
Cc1nn(CC(C)C)c(C)c1CC(=O)O | -1 | -3
CCCCC(=O)Nc1cc(NC(=O)c2csnn2)ccc1OC | 7 | 1
CN(CC1CCCN(CCc2cccc(C(F)(F)F)c2)C1)C(=O)c1cc2ccccc2o1 (stereo not drawn) | 8 | 1
Cc1ccc(NC(=O)N(Cc2c(-c3ccccc3)noc2N2CCCCC2)CC2CC2)cc1 | -1 | -1
CCCC(C)C(=O)Nc1ccc(OC)c(S(=O)(=O)N2CCOCC2)c1 (stereo not drawn) | 5 | 3
C(=C\c1ccccc1)/CSc1nnc(-c2cc(-c3ccccc3)nc3ccccc23)o1 | -1 | -5
O=C(Cc1ccccc1)NCCSc1ncc(-c2ccccc2)[nH]1 | 7 | 4
COC(=O)c1cc(S(=O)(=O)N2CC(C)OC(C)C2)c(Br)s1 (stereo not drawn) | -4 | -5
C=CCn1c(=O)c2c(nc3n2CCN3c2ccc(Cl)cc2)n(C)c1=O | 0 | -1
O=C(c1ccc(Cl)c(F)c1)N1CCOC(Cc2ccccc2)C1 (stereo not drawn) | 25 | 23
O=C(NCc1ccc2c(c1)OCO2)c1ccc(-c2cc(-c3cccc(C(F)(F)F)c3)n[nH]2)cc1 | 0 | 8
Cn1nc(-c2cccnc2)cc1N | 0 | -2
CCS(=O)(=O)c1ccc2oc(-c3cccc(O)c3)nc2c1 | 8 | 4
COc1ccc(CN(CC(C)C)CC(O)c2ccccc2)cc1 (stereo not drawn) | -2 | 4
CSCCCNC(=O)c1ccc(-c2ccc(F)c(F)c2)s1 | 27 | 21
COC(=O)Nc1cccc(OCC(=O)NCc2ccc(F)cc2)c1 | 2 | 6
O=C(NCC1COc2ccccc2O1)c1ccc(Nc2cccc(C(F)(F)F)c2)nc1 (stereo not drawn) | -14 | -19
CCCCCCCC(=O)N1CCN(c2nc(Cc3ccccc3)ns2)CC1 | -2 | 1
O=C(NC1CCN(C(=O)Cc2ccc3c(c2)CCC3)CC1)c1ccncc1 | 1 | -3
COc1ccccc1CN1CC(C(=O)NCCc2ccccc2Cl)CCC1=O (stereo not drawn) | -11 | -9
CCc1ccc(CN(C)C(=O)Cc2ccc(S(=O)(=O)N3CCCC3)s2)cc1 | 13 | 11
Cc1cc(Oc2cnn(-c3cccc(F)c3)c(=O)c2Nc2cccc(C(=O)N3CCCC3)c2)ccc1Cl | 9 | 9
CCOc1cc(/C=N\n2cnnc2)cc(Br)c1OCc1ccccc1 | -10 | -18
Cn1ncc([N+](=O)[O-])c1C(=O)Nc1ccccc1C#N | 3 | -2
OC1CCCN(c2ccnc(N3CCC(O)(Cc4ccccc4)CC3)n2)C1 (stereo not drawn) | 3 | -3
CC(=O)c1cc(C(c2csc(C(C)=O)c2)c2csc(C(C)=O)c2)cs1 | -3 | -6
CCn1c(=O)n(CC(=O)NC(C)c2cccs2)c2ccccc21 (stereo not drawn) | 0 | -1
COc1cccc(-c2nc3ccccn3c2NC(=O)C(C)(C)CCl)c1 | -5 | 1
CC1CN(c2ccc(NC(=O)NCc3ccc(-n4cncn4)nc3)cc2F)CC(C)O1 (stereo not drawn) | 0 | 11
Cc1oc(-c2ccccc2NS(C)(=O)=O)nc1CN(C)Cc1ccc(OC(F)F)cc1 | 9 | 9
O=C(c1nnc(-c2ccccc2)o1)N1CCN(C(c2ccccc2)c2ccc(Br)cc2)CC1 (stereo not drawn) | 27 | 12
CC(=O)N1CCCC(CNC(=O)Nc2nnc(-c3cccs3)s2)C1 (stereo not drawn) | 5 | 2
NC(=O)C1CCN(C(c2ccccc2)C2Sc3nc(-c4ccco4)nn3C2=O)CC1 (stereo not drawn) | 8 | 1
c1ccc(Nc2nccc3[nH]c(-c4ccccc4)nc23)cc1 | -3 | -9
COc1cc(C)c(S(=O)(=O)N(C)c2ccccn2)c(C)c1 | 1 | 0

In the list so far, these have a thiophene ring, fused or not.
SMILES | NPYLR7 agonist | NPYLR7 agonist max-min
COc1ccc(-c2ccc(=O)n(CCCNC(=O)c3cccs3)n2)cc1 | 1 | 1
COCCCN(CC(=O)N1CCc2sccc2C1COc1ccccc1C)C(=O)c1cccc(Cl)c1 (stereo not drawn) | -1 | 4
Cc1nnc(SCc2cccs2)[nH]c1=O | 2 | 3
O=C(c1cccs1)N1CCCC(OCc2ccc(F)cc2F)C1 (stereo not drawn) | -4 | -3
CN(C)CCNc1nc(C(F)(F)F)nc2ccsc12 | 4&2 | 3&2
CN(C)S(=O)(=O)c1cccc(COC(=O)c2cc3c(s2)CCCC3)c1 | 5 | 1
CC(Oc1ccc(OCc2ncc(-c3cccs3)o2)cc1)C(N)=O (stereo not drawn) | -3 | -4
O=C(CCc1ccsc1)NCc1nc(-c2ccc(F)cc2)n[nH]1 | 24 | 14
CC(=O)c1c(F)cc(F)cc1OCC(=O)N(C)Cc1cccs1 | 13 | 11
Cc1nc2cc(NC(=O)/C=C/c3ccc([N+](=O)[O-])s3)ccc2n1-c1ccccc1 | -4 | -6
COC(=O)c1cc(S(=O)(=O)N2CC(C)OC(C)C2)c(Br)s1 (stereo not drawn) | -4 | -5
CSCCCNC(=O)c1ccc(-c2ccc(F)c(F)c2)s1 | 27 | 21
CCc1ccc(CN(C)C(=O)Cc2ccc(S(=O)(=O)N3CCCC3)s2)cc1 | 13 | 11
CC(=O)c1cc(C(c2csc(C(C)=O)c2)c2csc(C(C)=O)c2)cs1 | -3 | -6
CCn1c(=O)n(CC(=O)NC(C)c2cccs2)c2ccccc21 (stereo not drawn) | 0 | -1
CC(=O)N1CCCC(CNC(=O)Nc2nnc(-c3cccs3)s2)C1 (stereo not drawn) | 5 | 2

High-throughput results as filed in PubChem BioAssay.
